# MLL AF4-AF9 inh: inhibitors of AF4 peptide binding to AF9, primary screen, biochemical, AlphaScreen, biotin-AF4 peptide, FLAG-AF9, single point | Protein AF-9 (Homo sapiens), P42568 | inhibition, % at 10 µM | 350,000 tested, 0.47% active | AID 651704, 2012;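 active = every replicate reaching a set inhibition limit, whatever the replicate mean, cut at about 25% in these data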;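 also: 0% = plate neutral control median and 100% = total signal loss; the record names both 10 and 1 µM as test concentration; the first replicate is given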
# Target sequence (P42568 whole entry, looked up): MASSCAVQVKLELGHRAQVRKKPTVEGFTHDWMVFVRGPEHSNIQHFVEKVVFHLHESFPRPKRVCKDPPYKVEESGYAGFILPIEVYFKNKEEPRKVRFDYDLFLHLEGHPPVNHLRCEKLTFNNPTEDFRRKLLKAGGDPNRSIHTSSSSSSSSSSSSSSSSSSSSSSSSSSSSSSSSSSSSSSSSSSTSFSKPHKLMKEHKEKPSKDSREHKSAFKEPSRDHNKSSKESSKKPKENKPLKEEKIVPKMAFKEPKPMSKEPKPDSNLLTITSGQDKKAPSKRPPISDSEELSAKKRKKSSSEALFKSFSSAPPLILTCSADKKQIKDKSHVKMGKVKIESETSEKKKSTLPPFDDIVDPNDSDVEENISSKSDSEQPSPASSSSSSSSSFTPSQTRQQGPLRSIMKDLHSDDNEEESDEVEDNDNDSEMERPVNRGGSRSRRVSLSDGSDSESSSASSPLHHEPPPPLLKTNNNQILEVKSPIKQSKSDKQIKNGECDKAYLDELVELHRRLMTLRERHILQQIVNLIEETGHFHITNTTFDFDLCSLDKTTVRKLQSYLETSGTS
# * hit, by the source's call.
canonical_smiles | MLL AF4-AF9 inh
C[C@@H]1CN([C@H](C)CO)C(=O)c2cc(C#CC3CC3)cnc2O[C@@H]1CN(C)Cc1ccncc1 | -2.3
CCC(=O)N1C[C@H](C)[C@@H](OC)CN(C)C(=O)c2ccc(NC(=O)c3ccccc3)cc2OC[C@H]1C | -8.9
C[C@@H]1CN([C@@H](C)CO)S(=O)(=O)c2ccc(-c3cccc(C(=O)N(C)C)c3)cc2O[C@H]1CN(C)C(=O)Cc1ccccn1 | -2.2
C[C@@H]1CN([C@@H](C)CO)C(=O)c2cc(NC(=O)c3ccncc3)ccc2O[C@@H](C)CCCCO[C@@H]1CN(C)S(=O)(=O)c1ccc(Cl)cc1 | 2.5
CC(C)NC(=O)N(C)C[C@@H]1OCCCC[C@H](C)Oc2ccc(NC(=O)Nc3cccc4ccccc34)cc2C(=O)N([C@H](C)CO)C[C@@H]1C | -2.6
COCC(=O)Nc1ccc2c(c1)C(=O)N(C)C[C@H](OC)[C@H](C)CN(Cc1ccccn1)[C@H](C)CO2 | 6.4
c1ccc(COc2cccc(-c3cc4nc(NCCCn5ccnc5)ccn4n3)c2)cc1 | 7.7
Cc1ccc(S(=O)(=O)N(C)C[C@H]2Oc3ccc(NC(=O)NC4CCCCC4)cc3CC(=O)N([C@@H](C)CO)C[C@@H]2C)cc1 | -1.6
CN1C[C@H]2[C@@H](c3ccccc31)[C@@H](CO)N2C(=O)C1CCOCC1 | -3.4
O=C(C1=C[C@H](C2CCCCC2)C[C@H](OCc2ccc(CO)cc2)O1)N1CCCC1 | -1.5
COCC#Cc1cnc2c(c1)C(=O)N([C@H](C)CO)C[C@H](C)[C@H](CN(C)C(=O)C1CCC1)O2 | -4.0
COc1ccc(C(=O)Cn2c(N3CCCCC3)nc3c2c(=O)n(C)c(=O)n3C)cc1OC | 2.4
COc1ccc(CN(C)C[C@H]2OCCCC[C@H](C)Oc3ccc(NC(=O)Nc4ccc(C(F)(F)F)cc4)cc3C(=O)N([C@@H](C)CO)C[C@H]2C)cc1 | 3.2
COc1ccc(CN(C)C[C@@H]2Oc3ccc(NS(=O)(=O)c4ccc(OC)cc4)cc3C(=O)N([C@@H](C)CO)C[C@@H]2C)cc1 | 0.7
C[C@@H]1CN([C@@H](C)CO)C(=O)c2cc(NC(=O)CCN3CCOCC3)ccc2O[C@H]1CN(C)CC1CCCCC1 | -3.7
O=C(C[C@H]1CC[C@H]2[C@@H](COC[C@@H](O)CN2C(=O)c2ccccc2F)O1)NCc1ccc(F)cc1 | -2.7
C[C@@H]1CCCCO[C@H](CN(C)Cc2ccc(C(=O)Nc3ccccc3N)cc2)[C@@H](C)CN([C@H](C)CO)C(=O)c2cc(NS(=O)(=O)c3cn(C)cn3)ccc2O1 | 2.0
CS(=O)(=O)N1CCCCC1c1cc(C(=O)Nc2cccc(C#N)c2)no1 (stereo not given) | -1.0
C[C@H]1CN([C@@H](C)CO)C(=O)c2cc(/C=C/c3ccccc3)cnc2O[C@H]1CN(C)Cc1cccnc1 | 4.4
CO[C@H]1CN(C)C(=O)c2cc(NS(=O)(=O)CC(F)(F)F)ccc2OC[C@@H](C)N(C)C[C@@H]1C | -1.1
C[C@@H]1CN([C@H](C)CO)C(=O)c2cc(C#CC3(O)CCCC3)cnc2O[C@@H]1CN(C)C(=O)Cc1ccccc1 | -4.2
COc1cccc(C(=O)Nc2ccc3c(c2)C(=O)N(C)[C@@H]2CC[C@H](CC(=O)NCC(F)(F)F)O[C@@H]2CO3)c1 | -1.4
Cc1ccc(S(=O)(=O)N(C)C[C@@H]2Oc3c(NC(=O)c4ccncc4)cccc3C(=O)N([C@@H](C)CO)C[C@H]2C)cc1 | -2.3
CC(C)NC(=O)Nc1ccc2c(c1)C(=O)N([C@@H](C)CO)C[C@H](C)[C@H](CN(C)Cc1ccccc1)O2 | 0.8
COc1ccc(S(=O)(=O)Nc2cccc3c2O[C@H](CN(C)C(=O)Nc2ccc(F)cc2)[C@@H](C)CN([C@H](C)CO)C3=O)cc1 | -2.0

# An excerpt from above in order of the MLL AF4-AF9 inh value, descending:
canonical_smiles | MLL AF4-AF9 inh
c1ccc(COc2cccc(-c3cc4nc(NCCCn5ccnc5)ccn4n3)c2)cc1 | 7.7
C[C@H]1CN([C@@H](C)CO)C(=O)c2cc(/C=C/c3ccccc3)cnc2O[C@H]1CN(C)Cc1cccnc1 | 4.4
COc1ccc(C(=O)Cn2c(N3CCCCC3)nc3c2c(=O)n(C)c(=O)n3C)cc1OC | 2.4
COc1cccc(C(=O)Nc2ccc3c(c2)C(=O)N(C)[C@@H]2CC[C@H](CC(=O)NCC(F)(F)F)O[C@@H]2CO3)c1 | -1.4
O=C(C1=C[C@H](C2CCCCC2)C[C@H](OCc2ccc(CO)cc2)O1)N1CCCC1 | -1.5
C[C@@H]1CN([C@H](C)CO)C(=O)c2cc(C#CC3CC3)cnc2O[C@@H]1CN(C)Cc1ccncc1 | -2.3
C[C@@H]1CN([C@H](C)CO)C(=O)c2cc(C#CC3(O)CCCC3)cnc2O[C@@H]1CN(C)C(=O)Cc1ccccc1 | -4.2

# More entries follow.
canonical_smiles | MLL AF4-AF9 inh
COc1ccccc1NC(=O)N1CCCCN2[C@H](CO)[C@H](c3ccc(C#CC4CCCC4)cc3)[C@@H]2C1 | -2.4
CCCC(=O)Nc1ccc2c(c1)C(=O)N(C)[C@@H]1CC[C@@H](CC(=O)NCCCN(C)C)O[C@H]1CO2 | 0.0
O=C(C[C@@H]1CC[C@@H](NC(=O)C2CCC2)[C@H](CO)O1)NCc1ccccc1Cl | -1.1
C[C@@H]1CN([C@H](C)CO)C(=O)c2ccccc2-c2ccccc2CO[C@H]1CN(C)C(=O)[C@@H]1CCCN1C | -0.8
COc1ccc2c3c(n(C)c2c1)[C@@H](CO)N(Cc1ccccc1F)CC31CCN(C(=O)C2CCOCC2)CC1 | 1.2
Cc1noc(C)c1S(=O)(=O)Nc1ccc2c(c1)C(=O)N([C@H](C)CO)C[C@H](C)[C@H](CN(C)C(=O)C1CCCCC1)OCCCC[C@H](C)O2 | -1.1
COCCN1C[C@@H](CO)O[C@@H](n2cnc3c(NCc4ccc(F)cc4)ncnc32)C1 | 0.1
COC(=O)c1c2oc(c1C(=O)OC)C(=O)N[C@@H](Cc1ccccc1)Cn1cc(nn1)CNC(=O)[C@@H](Cc1ccccc1)NC(=O)N[C@@H](CO)CC2 | 0.3
CCCc1nc2c(C)cc(Br)cn2c1Cc1ccsc1 | 0.0
C[C@H]1CCCCO[C@@H](CN(C)Cc2ccccc2)[C@@H](C)CN([C@@H](C)CO)C(=O)c2cc(NS(C)(=O)=O)ccc2O1 | -7.2
CN(C)CC(=O)Nc1ccc2c(c1)[C@@H]1C[C@H](CC(=O)NCc3ccccn3)O[C@H](CO)[C@@H]1O2 | -2.5
CCC(=O)N(C)C[C@@H]1Oc2ncc(-c3ccccc3F)cc2C(=O)N([C@@H](C)CO)C[C@@H]1C | -1.0
O=C(Nc1ccccc1)N[C@@H]1CC[C@@H](CCn2cc(C3(O)CCCC3)nn2)O[C@@H]1CO | -1.9
Cc1ccc(-c2nc3c(Cl)cc(C(F)(F)F)cn3c2Cc2cccc(Cl)c2)cc1 | 1.9
O=C(NC1CCC1)[C@H]1[C@H](CO)[C@H]2Cn3c(cccc3=O)[C@H]2N1CCc1ccccc1 | 2.8
C[C@@H]1CN([C@H](C)CO)C(=O)c2cc(NC(=O)NC3CCCCC3)ccc2O[C@@H](C)CCCCO[C@H]1CN(C)Cc1ccncc1 | -1.0
C[C@@H]1CCCCO[C@H](CN(C)S(=O)(=O)c2ccccc2)[C@H](C)CN([C@H](C)CO)C(=O)c2cc(NS(=O)(=O)c3cn(C)cn3)ccc2O1 | 0.4
CO[C@@H]1CN(C)C(=O)c2cc(NS(C)(=O)=O)ccc2OC[C@H](C)N(Cc2ccccc2)C[C@H]1C | -0.8
C[C@@H]1CN([C@H](C)CO)S(=O)(=O)c2ccc(Br)cc2O[C@H]1CN(C)Cc1ccccc1 | 2.3
COc1ccc(S(=O)(=O)Nc2ccc3c(c2)C(=O)N([C@@H](C)CO)C[C@@H](C)[C@H](CN(C)CC2CC2)O3)cc1 | -16
C[C@@H]1CN([C@H](C)CO)C(=O)Cc2cc(NC(=O)Cc3ccccc3)ccc2O[C@@H]1CN(C)Cc1ccccc1 | -1.8
C[C@@H]1CCCCO[C@H](CN(C)C(=O)Nc2ccc(C(F)(F)F)cc2)[C@H](C)CN([C@@H](C)CO)C(=O)c2cc(NC(=O)Nc3ccc4c(c3)OCO4)ccc2O1 | 1.6
C[C@H](CO)N1C[C@H](C)[C@H](CN(C)C(=O)c2ccccc2)Oc2cc(C#CC3(O)CCCC3)ccc2S1(=O)=O | 0.6
O=C(N[C@@H]1C=C[C@H](CC(=O)N2CCCCC2)O[C@@H]1CO)c1cccc(F)c1 | -20
C[C@@H]1CN([C@@H](C)CO)C(=O)c2cc(NC(=O)Nc3ccc(F)cc3)ccc2O[C@@H]1CN(C)Cc1ccc(C(=O)O)cc1 | -3.2

# Remaining list, next part
canonical_smiles | MLL AF4-AF9 inh
CCOC(=O)[C@]12CCC=C1N(Cc1cccc3ccccc13)C(=O)[C@H](CC(=O)NCc1ccccc1)C2 | 0.2
O=C(Cc1ccccc1)N1CC(=O)N2[C@@H](CO)[C@@H](c3ccc(Br)cc3)[C@@H]2C1 | -2.5
CCc1cnc(N2[C@H](C#N)[C@@H](c3ccc(C#Cc4ccccc4F)cc3)[C@H]2CO)s1 | -2.4
CCCC(=O)N1CCC1(C)C(=O)Nc1ccc2nc(C)ccc2c1 (stereo not given) | -3.4
Cc1cccc(C)c1-n1nnnc1C(c1cccc2ccccc12)N1CCN(C/C=C/c2ccccc2)CC1 (stereo not given) | 1.5
COc1ccc2c3c([nH]c2c1)[C@@H](CO)N(C(=O)c1ccncc1)CC31CN(C(=O)C2CCC2)C1 | -13
COc1ccc(S(=O)(=O)Nc2ccc3c(c2)CC(=O)N([C@H](C)CO)C[C@H](C)[C@H](CN(C)Cc2ccc(-c4ccccc4)cc2)O3)cc1 | 0.3
COc1cccc(C(O)c2ncc(-c3cccc4ccccc34)[nH]2)c1 (stereo not given) | 7.3
O=C(C[C@H]1CC[C@H](NS(=O)(=O)c2ccccc2F)[C@@H](CO)O1)NCCCN1CCOCC1 | 0.3
COc1ccc(S(=O)(=O)N(C)C[C@@H]2OCCCC[C@@H](C)Oc3ccc(NC(=O)c4ccncc4)cc3C(=O)N([C@H](C)CO)C[C@@H]2C)cc1 | -1.0
C[C@@H]1CN([C@@H](C)CO)C(=O)c2cc(NC(=O)Cc3ccccc3)ccc2O[C@@H]1CN(C)S(C)(=O)=O | -3.2
CN(C)CC(=O)N1[C@H](C#N)[C@H](c2ccc(-c3ccccc3F)cc2)[C@@H]1CO | 0.3
O=C1NC[C@H](CCCCN2CCN(Cc3ccccc3)C(=O)C2=O)N(CC2CCCCC2)C1=O | 5.8
Cc1ccc(S(=O)(=O)N(C)C[C@@H]2OCCCC[C@H](C)Oc3ccc(NC(=O)Cc4ccccc4)cc3C(=O)N([C@@H](C)CO)C[C@H]2C)cc1 | -2.9
CO[C@H]1CC[C@@H]2CCN(C)C(=O)C[C@@H](c3ccccc3)CN(C)C(=O)c3cccc(C#N)c3OC[C@H]1O2 | -1.3
C[C@@H]1CN([C@@H](C)CO)C(=O)c2cc(NC(=O)CCCN(C)C)ccc2O[C@@H]1CN(C)CC1CCCCC1 | -4.8
Cc1noc(C)c1NC(=O)N(C)C[C@@H]1Oc2ccc(NC(=O)CCN3CCOCC3)cc2C(=O)N([C@H](C)CO)C[C@@H]1C | -0.8
O=C(c1ccco1)N1CCN(C(=O)c2[nH]c(C(F)(F)F)nc2-c2ccccc2)CC1 | -1.3
C1CCN2C[C@@H]3C[C@@H](CN4CCCC[C@@H]34)[C@H]2C1 | 1.3
O=C(N[C@H]1CC[C@H](CCNC(=O)C2CCOCC2)O[C@@H]1CO)c1ccccn1 | -1.8
C[C@@H]1CN([C@H](C)CO)C(=O)c2cc(NS(=O)(=O)c3cn(C)cn3)ccc2O[C@@H]1CN(C)CC1CCCCC1 | -1.6
O=S1(=O)N[C@@H](Cc2ccccc2)COc2cc(N3CCSCC3)ccc21 | -1.4
C[C@H](CO)N1C[C@H](C)[C@H](CN(C)C(=O)Cc2cccnc2)Oc2ncc(-c3ccccc3)cc2C1=O | -3.8
CNC[C@@H]1Oc2cc(C#Cc3ccccc3OC)ccc2S(=O)(=O)N([C@H](C)CO)C[C@H]1C | 18
CN1CCN(C(=O)C[C@H]2C=C[C@@H](NC(=O)Nc3ccccc3F)[C@H](CO)O2)CC1 | -2.8

# Next records:
canonical_smiles | MLL AF4-AF9 inh
C[C@@H]1CN([C@H](C)CO)C(=O)c2cc(NS(=O)(=O)c3cn(C)cn3)ccc2O[C@@H](C)CCCCO[C@@H]1CN(C)S(=O)(=O)c1ccc(F)cc1 | -13
CO[C@H]1CN(C)C(=O)c2ccc(NC(=O)c3cc(C)on3)cc2OC[C@@H](C)NC[C@H]1C | -6.1
Cc1noc(C)c1S(=O)(=O)Nc1ccc2c(c1)C(=O)N([C@@H](C)CO)C[C@H](C)[C@@H](CN(C)C(=O)NC1CCCCC1)O2 | -13
COCC(=O)N1CC(=O)N2[C@H](CO)[C@H](c3ccc(C#CC4CCCCC4)cc3)[C@@H]2C1 | 0.1
O=C(c1cnccn1)N1CC(=O)N2[C@H](CO)[C@@H](c3ccc(/C=C/c4ccccc4)cc3)[C@@H]2C1 | 2.9
CO[C@@H]1CN(C)C(=O)c2ccc(NC(=O)C3CC3)cc2OC[C@H](C)N(Cc2ccccc2)C[C@H]1C | -2.5
CC(=O)N(C)C[C@@H]1Oc2ncc(C#Cc3ccccc3F)cc2C(=O)N([C@@H](C)CO)C[C@@H]1C | -2.6
Cc1ccc(S(=O)(=O)N(C)C[C@@H]2Oc3ccc(NC(=O)Nc4ccc(C(F)(F)F)cc4)cc3CC(=O)N([C@@H](C)CO)C[C@@H]2C)cc1 | -0.5
C[C@H](CO)N1C[C@H](C)[C@@H](CN(C)CC2CC2)Oc2ccc(NC(=O)CCCCCC(=O)Nc3ccccc3N)cc2CC1=O | 7.1

# Bioassay records: PubChem BioAssay, Broad Institute

# This is a subset; the hit share may differ from the screen's.
